Screens as filed in PubChem BioAssay.
VACV Venus inh – qHTS for Stage-Specific Inhibitors of Vaccinia Orthopoxvirus: Venus Reporter Primary qHTS; Vaccinia virus Venus reporter expression, fluorescence; Potency, µM (doses to about 36.5 µM), for inactives: at the top dose activity change, negative = inhibition, actives largely listed as inhibitors; 330,000 tested, 0.46% active; active means well fitted inhibition curve with a large enough effect; inconclusive means small, poorly fitted or top-dose-only effect; inactive means no such curve, though single readings can be large or run the other way; tested in A549 cells; further: nearly all actives have a fitted effect of over 30% in size; inactives centre near -10
VACV mCherry inh – qHTS for Stage-Specific Inhibitors of Vaccinia Orthopoxvirus: mCherry Reporter Primary qHTS; Vaccinia virus mCherry reporter infection, fluorescence; about a quarter of the inactives have no number; Potency, µM (doses to about 36.5 µM), for inactives: at the highest dose activity change, negative = inhibition, usual class: inhibitors; 310,000 tested, 0.63% active; active = well fitted inhibition curve with a large enough effect; inconclusive = small, poorly fitted or top-dose-only effect; inactive = no such curve, though single readings can be large or run the other way; tested in A549 cells; further: nearly all actives have a fitted effect of over 35% in size; inactives centre near -10
An asterisk follows results filed as active; i = inactive; u = inconclusive; x = no result given; & = joins results of further samples; [ ] = remark or other dose. On the % scale 0 is the no-effect control and ±100 the full control effect; potency means the concentration at half of the fitted maximal effect.

SMILES	VACV Venus inh	VACV mCherry inh
COc1ccc(C(=O)C(C)[n+]2ccc(-c3nnc4n3CCCCC4)cc2)cc1 (centres undefined)	-3%	-13%
CCCCN(C)C(=O)c1ccc(S(=O)(=O)N2CCOCC2)cc1	-7%	x
COc1ccc(C2C3=C(CC(C)(C)CC3=O)Nc3c2c(=O)n(C)c(=O)n3C)cc1OC (centres undefined)	-5%	-13%
CN1/C(=C\C(=O)c2ccco2)c2ccccc2CC1(C)C	-18%	-17%
OCC1CCCN1C(=S)Nc1ccccc1 (centres undefined)	-25%	-14%
O=C(Nc1ccccc1)N1CCC(n2c(=O)[nH]c3ccccc32)CC1	-8%	21%
O=C(NCC(=O)N(Cc1cccs1)C(C(=O)NC1CCCCC1)c1ccncc1)c1ccco1 (centres undefined)	-7%	i
CC(C)(C)C1=C(C#N)C(c2cccnc2)C(C#N)=C(N)O1 (centres undefined)	-10%	-18%
CCOc1ccc(CNC(=O)Cn2nc(C)c3nn(-c4ccc(Cl)cc4)c(C)c3c2=O)cc1OC	-8%	-15%
Cc1cccc(NC(=O)CSCC(=O)N2CCCc3ccccc32)c1	-9%	i
O=C(Nc1ccc(Br)cc1)c1cccc(N2C(=O)CCC2=O)c1	-7%	-20%
Cc1cc(Br)ccc1N=C1NC(=O)CS1	-10%	i
Cc1cc(=O)n(Cc2ccc(OC(C)C)cc2)c(=S)[nH]1	-14%	i
CCCCC(CC)COC(=O)CCCCC(=O)OCC(CC)CCCC (centres undefined)	-19%	i
Cc1ccc(/C=N/NC(=O)c2sccc2OCc2ccc(F)cc2)cc1	u	x
COc1ccccc1-c1cc(N)n(S(=O)(=O)c2cccc3nsnc23)n1	-18%	-25%
O=C(Cn1cc(C(F)(F)F)ccc1=O)N1CCN(S(=O)(=O)c2ccc(Cl)cc2)CC1	-6%	-9%
CCCCCCCCC(=O)NCCOc1ccccc1	-4%	-5%
CC1CCc2sc(C(=O)N/N=C/C3CCCCC3)cc2C1 (centres undefined)	-14%	-27%
CCC(=O)Nc1sc2c(c1C(=O)Nc1ccc(OC)cc1)CCC(C(C)(C)C)C2 (centres undefined)	0%	-13%

Sorted by length of the SMILES (rising): part of the list above.
SMILES	VACV Venus inh	VACV mCherry inh
CCCCC(CC)COC(=O)CCCCC(=O)OCC(CC)CCCC (centres undefined)	-19%	i
CN1/C(=C\C(=O)c2ccco2)c2ccccc2CC1(C)C	-18%	-17%
Cc1cccc(NC(=O)CSCC(=O)N2CCCc3ccccc32)c1	-9%	i
COc1ccc(C(=O)C(C)[n+]2ccc(-c3nnc4n3CCCCC4)cc2)cc1 (centres undefined)	-3%	-13%
COc1ccc(C2C3=C(CC(C)(C)CC3=O)Nc3c2c(=O)n(C)c(=O)n3C)cc1OC (centres undefined)	-5%	-13%
CCOc1ccc(CNC(=O)Cn2nc(C)c3nn(-c4ccc(Cl)cc4)c(C)c3c2=O)cc1OC	-8%	-15%

Additional records follow.
SMILES	VACV Venus inh	VACV mCherry inh
Cc1nc2ccsc2c(=O)n1-c1cccc(Cl)c1	-15%	-22%
CCOC(=O)C(=O)NC12CC3CC(CC(C3)C1)C2	-17%	i
CCOc1ccccc1C(=S)NC1CCCCC1	-12%	-10%
CCN(CC)S(=O)(=O)c1ccc(-c2csc(=Nc3cccc(C(F)(F)F)c3)n2Cc2ccc3c(c2)OCO3)cc1	1%	-10%
COc1cccc(-c2cnc3c(NC(C)=O)cc(-c4ccc(OC)c(OC)c4)cn23)c1	4%	36%[activator]
Cc1ccccc1NC(=O)c1ccc2c(O)c(S(=O)(=O)c3ccccc3)c(=O)[nH]c2c1	-9%[7.34 µM]	-13%[7.34 µM]
COc1ccc(OC)c(C2C(C(=O)Nc3nc4ccccc4s3)=C(C)NC3=C2C(=O)CCC3)c1 (centres undefined)	-10%	x
CC(=O)Nc1cccc(-c2cc(NC(C)=O)c3ncc(-c4ccc(C(C)=O)cc4)n3c2)c1	-17%	-15%
CC(=O)N1CCSc2ccc(S(=O)(=O)NCc3ccc(F)cc3)cc21	10%[7.34 µM]	-5%[7.34 µM]
O=[N+]([O-])c1cc(F)c(N2CCCC2)cc1Br	-11%	-6%
Cc1cc(Cl)ccc1NC(=O)CCC(=O)N/N=C/c1cc([N+](=O)[O-])ccc1O	-7%	i
O=C(Nc1ccccc1Cl)N1CCC(CN2CCCC2)CC1	-13%	-4%
O=S(=O)(Nc1ccc(S(=O)(=O)N2CCCC2)cc1)c1ccccc1Br	2%	-12%
COc1ccc(Br)cc1C(=O)Nc1ccccc1-c1ccccc1	-12%	i
Cc1ccc(-c2nnc(Nc3ccc(C(N)=O)cc3)c3ccccc23)cc1S(=O)(=O)N1CCCCC1	-16%	-14%
COc1cccc(CSc2nc3n(n2)C(c2cccc(F)c2)C(C(=O)Nc2ccccc2C)=C(C)N3)c1 (centres undefined)	6%	-1%
CC(=O)c1cccc(NC(=O)C2CCN(C(=O)c3ccc([N+](=O)[O-])cc3)CC2)c1	-8%	i
CC(C)CCn1nnnc1C(c1ccc(F)cc1)N1CCC(C(N)=O)CC1 (centres undefined)	-24%	u
CN1CCN(C(=S)NC(=O)/C=C/c2ccccc2Cl)CC1	-5%	-5%
NC(Cc1ccc(F)cc1)c1csc(Nc2ccc(S(N)(=O)=O)cc2)n1 (centres undefined)	-12%	i

In the list so far, these have a Cl atom.
SMILES	VACV Venus inh	VACV mCherry inh
CCOc1ccc(CNC(=O)Cn2nc(C)c3nn(-c4ccc(Cl)cc4)c(C)c3c2=O)cc1OC	-8%	-15%
O=C(Cn1cc(C(F)(F)F)ccc1=O)N1CCN(S(=O)(=O)c2ccc(Cl)cc2)CC1	-6%	-9%
Cc1nc2ccsc2c(=O)n1-c1cccc(Cl)c1	-15%	-22%
Cc1cc(Cl)ccc1NC(=O)CCC(=O)N/N=C/c1cc([N+](=O)[O-])ccc1O	-7%	i
O=C(Nc1ccccc1Cl)N1CCC(CN2CCCC2)CC1	-13%	-4%
CN1CCN(C(=S)NC(=O)/C=C/c2ccccc2Cl)CC1	-5%	-5%

Next part:
SMILES	VACV Venus inh	VACV mCherry inh
O=C(NC1CC2CCC1C2)C1CCN(S(=O)(=O)c2ccc(-c3nn[nH]n3)cc2)CC1 (centres undefined)	-6%	x
CN(C)C1=NCCN1CCC1CCCC1	-6%	i
O=C(COC(=O)c1cc(-c2ccccc2)nc2ccccc12)c1ccc(Br)cc1	-15%	-1%
COc1ccc(/C=C/C(=O)c2cc(F)ccc2OC(=O)c2ccccc2)cc1OC	u	u
CCn1c(C)c(C2N3CC4(C)CN2CC(CC)(C3)C4=O)c2ccccc21 (centres undefined)	-6%	-7%
CCNC(=S)N/N=C/c1cn(Cc2ccc(F)cc2)c2ccccc12	u	-15%
CSCCC(C(=O)Nc1c(C)cccc1C)N(C)CCc1ccccc1 (centres undefined)	7%	27%
COCc1c(C(=O)N2CCN(c3ccccc3)CC2)cnn1-c1nccc(-c2ccco2)n1	-11%	-21%
Cc1nn(-c2ccccc2)c(C)c1NC(=O)COC(=O)C1CC(=O)N(CCc2ccccc2)C1 (centres undefined)	-17%	i
Cc1occc1C(=O)N=Nc1c(O)n(C)c2ccccc12	-12%	-8%
COC(=O)c1ccc2c(=O)[nH]c(CSc3nc(-c4ccc(F)cc4)cs3)nc2c1	0%	-15%
COc1cccc(C2CC(=O)Nc3cc(OC)c(OC)cc32)c1 (centres undefined)	-8%	i
CC(=O)Oc1ccc(N(C(C)=O)S(=O)(=O)c2cccs2)cc1	-2%	-14%
COc1cccc(/C=C/C(=O)NCCc2ccc3c(c2)OCCO3)c1	-5%	-13%
O=C(NCCSCc1ccc(Cl)cc1)C1CCN(S(=O)(=O)Cc2ccccc2)CC1	-8%	-3%
COc1ccccc1NC(=O)C1=C(C)Nc2nc(SCc3ccccc3F)nn2C1c1cccs1 (centres undefined)	0%	-13%
Cc1ccc(CN2CCN(c3ccccn3)CC2)s1	-10%	-14%
CC1(C(=O)NS(=O)(=O)c2cccc(OC(F)F)c2)CCN1C(=O)Cc1ccccc1 (centres undefined)	5%	10%
COc1cc(NC(=S)N2c3ccccc3CC2C)cc(OC)c1 (centres undefined)	-13%	i
CC(C)NC(=O)c1onc(CSc2ccc(F)cc2)c1C(=O)NC(C)C	-11%	i
Nc1ccccc1C(=O)C[C@H](N)C(=O)O	-9%&-6%	0%&-12%
CC(=O)c1cccc(NS(=O)(=O)c2cccc(S(=O)(=O)c3ccc(Br)cc3)c2)c1	-13%	-25%
Cc1cccc(CNc2nc(-c3ccoc3)nc3ccccc23)c1	0%	-4%
Cc1cc(S(=O)(=O)NCc2cccs2)ccc1-n1cnnn1	-5%	-18%
C=CCn1c(Cc2ccccc2)nc2c(cnn2-c2ccccc2)c1=O	-27%	u
CN(Cc1nc(-c2cccnc2)no1)S(=O)(=O)c1ccc(Br)cc1	-11%	x
COc1ccc(CCNC(=O)CN(C)S(=O)(=O)c2ccc3c(c2)CCC(=O)N3)cc1OC	-9%	i
Cc1ccc(CCNC(=O)C2CCN(Cc3nc(-c4ccccc4C)oc3C)CC2)cc1	-24%	-26%
Clc1ccc2nc(CN3CCCCC3)cn2c1	3%	-12%
O=C(CCCN1CCc2[nH]c3ccc(F)cc3c2C1)c1ccc(F)cc1	-17%	-8%
O=C(O)C(Cc1c[nH]c2ccccc12)N1Cc2ccccc2C1=O (centres undefined)	-14%	-7%
O=c1c(N2CCN(c3cccc(C(F)(F)F)c3)CC2)csc2ccc(Cl)cc12	u	u
Cc1ccc(NC(=O)Nc2c(C)n(C)n(-c3ccccc3)c2=O)cc1C	-4%	-2%
Cc1nn(Cc2ccc(C(=O)N3N=C(C(F)F)CC3(O)C(F)F)o2)c(C)c1[N+](=O)[O-] (centres undefined)	-24%	u
COc1ccc(CNC(=O)c2c(O)c3ccccc3n(C)c2=O)cc1OC	-20%	-6%[1.46 µM]
CCOc1ccc2cc(S(=O)(=O)N3CCN(C)CC3)ccc2c1	u	-44%
COC(=O)[C@]1(C)N[C@H](CN(C)C(=O)c2ccc(C(C)(C)C)cc2)[C@@H]2C(=O)N(C)C(=O)[C@@H]21	14%	-5%
CCC(=O)Nc1sc2c(c1C(N)=O)CCN(Cc1ccccc1)C2	-15%	-24%
CCC(=NNC(=O)c1ccc2c(c1)nc(C)n2CC)c1cc(F)ccc1O	u	10µM*
CCC1CCCCN1S(=O)(=O)c1ccc(S(=O)(=O)N(Cc2cccs2)C2CC2)cc1 (centres undefined)	0%	-17%
Cc1ccccc1OCc1n(CC(=O)OC2CC(C)CCC2C(C)C)c2ccccc2[n+]1C (centres undefined)	11µM*	u
COc1ccc(C2CC(c3cccs3)=NN2C(=O)CSc2nc3ccccc3o2)cc1 (centres undefined)	-16%	-18%
O=C(CN1C(=O)C2CCc3[nH]c4ccccc4c3C2C1=O)N1CCCC1 (centres undefined)	-8%	x
OC[C@@H]1CN(Cc2ccco2)C[C@H](n2cnc3c(NC4CCCC4)ncnc32)O1	11%	29%
O=C(C1CCCN(S(=O)(=O)c2cccc3nonc23)C1)N1CCN(c2ccccc2F)CC1 (centres undefined)	1%	-12%
C[C@H](CO)N1C[C@H](C)[C@@H](CN(C)S(=O)(=O)c2ccc(F)cc2)Oc2ccc(NC(=O)Cc3ccccc3)cc2C1=O	-26%	-4%
COc1ccccc1CC(=O)NCc1ccc2c(c1)OCO2	-7%	-10%
COc1ccccc1OCCNC(=O)c1ccc(S(=O)(=O)N(C)C)cc1	-4%	-5%
COc1cc(/C=C2\SC(=S)N(CC(=O)O)C2=O)ccc1OS(=O)(=O)c1ccc(C)cc1	44%[activator]	-1%
CCOC(=O)N1CCN(C(=O)c2cc(COc3ccc4ncccc4c3)on2)CC1	-22%	-21%
Cc1[nH]c(=S)c(C#N)c(-c2ccccc2)c1C(=O)Nc1ccccc1	-5%	1%
Cc1cccc(NC(=O)CSc2nccn2C)c1	-2%	x
O=C(Nc1nc(-c2ccccc2)ns1)c1ccncc1	3%	-7%
Cc1ccc2nc3ccc(N4CCCC4)nn3c(=O)c2c1	u	x
NC(=O)CSc1nc(O)cc(=O)n1-c1ccccc1	1%	-10%
N#Cc1c(NC(=O)c2cnn3cccnc23)sc2c1CCCC2	-17%	-16%
O=C(O)[C@H]1[C@H]2CN[C@H](C(=O)O)[C@H]21	-8%	-10%
Cc1cc(C)cc(OCC(=O)OCC(=O)Nc2cc(S(=O)(=O)N3CCOCC3)ccc2C)c1	-29%	i
O=C(c1cccc(N2CCCC2=O)c1)N1CCC(Oc2cccc(CN3CCN(c4ccccn4)CC3)c2)CC1	-15%	u
N#CCCN(C(=O)COC(=O)CSc1ccc(Cl)cc1)c1ccccc1	-7%	i
CCC(C)N(C(=O)CSc1nc2ccc(OC)cc2[nH]1)C1CCS(=O)(=O)C1 (centres undefined)	-12%	i
O=C(NCCc1ccccc1F)C1C(=O)Nc2ccccc2C(=O)N1C1CCCCC1 (centres undefined)	-1%	-7%
CC(=O)Cn1c(CN2CCCC2)nc2ccccc2c1=O	3%	-1%
